# Assay outcomes: PubChem, Center for Chemical Genomics, University of Michigan
# CDC25B CDK2 inh – human CDC25B-CDK2/CyclinA binding inhibition. P30305+P24941. HTRF CDC25B-CDK2/CyclinA binding, anti-His/anti-Flag; hits give high values. z-score (test concentration not listed). hit rate 0.72% among 94,000. AID 1259370;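 note: score is relative to mean and SD of negative controls; strong numbers were not always called active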
# HIV TAR-Tat – HIV-1 TAR-Tat binding disruption; HIV-1 TAR RNA, Tat peptide displacement FRET; hits give high values; z-score (test concentration not listed); hit rate 0.6% among 100,000; AID 1259389;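 note: score is relative to mean and SD of negative controls; some compounds called inactive have numbers as strong as hits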
# * marks the source's active call; other numbers are inactive results; x = not tested or not shown.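 Rule for the calls: active = z-score from 3 up in half or more of its runs; inactive = the rest.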
SMILES,CDC25B CDK2 inh,HIV TAR-Tat
CCCN1C(=O)C2(/C(=C(/O)c3ccc(F)cc3)C(=O)C(=O)N2CCCOC)c2ccccc21 (stereo not drawn),-1.9,-0.53
N#CC1=C2SCN(C3CCCCC3)CN2C(=O)CC1c1ccc(F)cc1 (stereo not drawn),0.26,1.4
O=[N+]([O-])c1cccnc1NCc1ccccn1,-1.7,x
COC(=O)c1sc(N2C(=O)C(=O)/C(=C(/O)c3ccc(Cl)cc3)C2c2ccc(C)cc2)nc1C (stereo not drawn),-1.8,1.1
O=S(=O)(Nc1cccnc1)c1ccccc1,-0.14,x
CCOC(=O)C1CCCN(S(=O)(=O)c2ccc(-c3cc(C)no3)s2)C1 (stereo not drawn),x,1.2
c1cc[n+](Cc2ccc(C[n+]3ccccc3)c3nsnc23)cc1,-0.72,x
Cc1nn(-c2ccccc2)cc1/C=N/NC(=O)Cc1ccccc1,1.2,x
Cc1nc(-c2ccc(C)c(C)c2)c(CC(=O)O)s1,0.73,-0.57
O=C(c1ccccc1)c1cnc2ccc(F)cc2c1N1CCOCC1,-2.1,-1.8
Cc1cc(C)nc(SCC(=O)Nc2ncccn2)n1,-1.6,1.2
Cc1ccc(OCC(=O)OCc2cc(=O)n3nc(C4CC4)sc3n2)cc1,x,0.99
CCc1cc(C)cc(OCCOc2cccc(/C=N/n3cnnc3)c2)c1,-1.6,x
CC1(O)C2CC3CC(C2)CC1C3 (stereo not drawn),-1.3,x
Cn1nnnc1SCSc1nnnn1C,-0.12,-0.51
O=C1CC(c2ccncc2)c2cc3c(cc2N1)OCO3 (stereo not drawn),-0.89,-1.5
CC(C)NC(=O)c1ccc2c(c1)ncn2CCNC(=O)NC(C)(C)C,x,0.5
O=c1cc(NCc2ccccc2)[nH]c(=O)[nH]1,-0.1,-0.07
CCCC(=O)N1c2nc(CC)nn2C2(CCCCC2)[C@@H]2CCCC[C@@H]21,-0.66,0.98
Cn1c(=O)c2cn3c(c2n(C)c1=O)C(c1ccc(O)c(O)c1)Nc1ccccc1-3 (stereo not drawn),-1.6,0.24

# 4 entries from above, with each value named.
CC(C)NC(=O)c1ccc2c(c1)ncn2CCNC(=O)NC(C)(C)C
  CDC25B CDK2 inh: x
  HIV TAR-Tat: 0.5
COC(=O)c1sc(N2C(=O)C(=O)/C(=C(/O)c3ccc(Cl)cc3)C2c2ccc(C)cc2)nc1C (stereo not drawn)
  CDC25B CDK2 inh: -1.8
  HIV TAR-Tat: 1.1
Cc1cc(C)nc(SCC(=O)Nc2ncccn2)n1
  CDC25B CDK2 inh: -1.6
  HIV TAR-Tat: 1.2
Cn1c(=O)c2cn3c(c2n(C)c1=O)C(c1ccc(O)c(O)c1)Nc1ccccc1-3 (stereo not drawn)
  CDC25B CDK2 inh: -1.6
  HIV TAR-Tat: 0.24

# Additional compounds follow:
SMILES,CDC25B CDK2 inh,HIV TAR-Tat
COc1cccc(NC(=O)C2C3C=CC4(O3)C2C(=O)N(C(C)C)C4C(=O)NC2CCCCC2C)c1 (stereo not drawn),-1.2,1.8
CSc1ccc(-c2nc3c([nH]2)c(=O)n(C)c(=O)n3C)cc1,x,1.4
Cn1cccc1C(=O)N/N=C(\N)CSc1ccc(Cl)cc1,-1.2,x
Cc1nn(S(=O)(=O)c2ccc(Br)cc2)c(C)c1S(=O)(=O)N1CCCCC1,x,0.1
O=C(Cn1c(=O)c2cccn2c2ccc(F)cc21)N1CCOCC1,x,1
COc1ccc(-c2n[nH]c(=S)o2)cc1,-1.7,x
CC1CCC(NC(=O)C2CCCN(S(=O)(=O)c3ccc4[nH]c(=O)oc4c3)C2)CC1 (stereo not drawn),x,-0.02
CC1=C(c2ccc(Cl)cc2)S(=O)(=O)NC1=NCc1ccc(OC(C)C)cc1,0.14,0.64
O=c1c2c(-c3ccc(Cl)cc3)csc2ncn1Cc1ccc2c(c1)OCO2,-0.32,1.2
Cc1ccc2oc(-c3ccc(NC(=S)NC(=O)c4ccccc4Br)cc3O)nc2c1,0.37,x
COc1ccc(-c2cc(=O)c3ccccc3o2)cc1,x,1
CCN(CC)CCNC(=O)c1c(O)nc2ccccn2c1=O,-1.6,0.96
Cc1cc2nc(COC(=O)c3ccc(Br)cc3)cc(=O)n2o1,x,-0.44
O=C(NCCCN1CCOCC1)c1cc2c(s1)-c1ccc(Cl)cc1SC2,-3.9,-0.11
O=c1[nH]n(Cc2ccccc2)c2ccccc12,-2.7,x
CCn1c(SCC(=O)Nc2cc(C)on2)nc2c([nH]c3ccccc32)c1=O,x,2.4
O=C(Nc1nonc1-c1ccc(Cl)cc1)c1ccc(Br)cc1,0.26,-0.49
COc1ccc(CCNc2nn3nnnc3c3ccccc23)cc1OC,x,-0.31
COc1ccc(C(=O)NNC(=O)c2ccc(-n3c(C)ccc3C)cc2)cc1OC,-0.74,x
Cc1ccc(-c2nc3cnccn3c2Nc2c(C)cccc2C)s1,-1,0.55
COc1cc(CN2CCc3nc(N4CCCC4)ncc3C2)ccc1OC(C)C,x,1.4
COc1ccc(C2CC(=O)C3=C(C2)Nc2ccccc2NC3c2c[nH]c3ccccc23)cc1 (stereo not drawn),1.3,x
O=c1c(Cl)c(N2CCCC2)cnn1-c1nc2ccccc2s1,-1.4,-0.07
O=C(CCc1nc2cccnc2n1-c1ccccc1)Nc1ccc2c(c1)OCCO2,0.19,1.6
O=C(CC1(O)C(=O)Nc2ccccc21)c1ccc2ccccc2c1 (stereo not drawn),1.7,2.5
COc1ccc(C(=O)COC(=O)c2ccc(N3C(=O)C4CC=CCC4C3=O)cc2)cc1 (stereo not drawn),0.01,2.2
Cc1cccn2c(=O)c(C(=O)NCCN(C)C)cnc12,x,2.1
COC(=O)c1ccsc1NC(=O)C1CCCCC1,-0.65,x
O=S(=O)(Cc1nc(-c2ccc(Cl)cc2)cs1)c1cccs1,0.05,x
COc1ccc2c(c1)C(NC(C)=O)C(=O)N2C (stereo not drawn),-1.8,-2.1
O=C(Nc1ccccc1)Nc1nc(-c2ccc(F)c(F)c2)cs1,-0.34,x
Cn1cnc(S(=O)(=O)Nc2cccnc2)c1,x,1.5
Clc1ccccc1C1CC(c2cccs2)Nc2ncnn21 (stereo not drawn),-0.99,x
Cn1cnc(S(=O)(=O)N2CCC(C(=O)Nc3ccc(Cl)cc3)CC2)c1,x,1.2
Cc1cc2c(cc1NS(=O)(=O)c1ccc(C3CCCCC3)cc1)n(C)c(=O)n2C,x,0.77
COc1cc(OC)cc(C(=O)n2c(=O)oc3ccccc32)c1,x,0.43
CC1ON(c2ccc(Br)cc2)C(=O)NC1=O (stereo not drawn),-1.3,0.18
CCCCN1C=C(OC(=O)C(C)(C)C)c2ccccc2S1(=O)=O,-1.5,1.9
c1ccc2c(Cn3c(CN4CCOCC4)nc4ccccc43)cccc2c1,-0.26,0.17
O=C(O)CNC(=O)CCCCC(=O)NCC(=O)O,10*,x

# Structural class, the entries above with a tert-butyl group
SMILES,CDC25B CDK2 inh,HIV TAR-Tat
CC(C)NC(=O)c1ccc2c(c1)ncn2CCNC(=O)NC(C)(C)C,x,0.5
CCCCN1C=C(OC(=O)C(C)(C)C)c2ccccc2S1(=O)=O,-1.5,1.9

# Next part
SMILES,CDC25B CDK2 inh,HIV TAR-Tat
Cn1c(=O)n(CC(=O)N2CCCC2)c(=O)c2cc(S(=O)(=O)N3CCCCC3)ccc21,x,1.6
Cc1cc(NC(=O)c2cc(C)oc2C)n(C)n1,-2.8,x
Cn1ncc2c(Nc3ccc(Br)cc3F)ncnc21,x,0.34
O=C(Cn1c(=O)oc2ccccc21)Nc1ccc(S(=O)(=O)Nc2nccs2)cc1,-0.48,2.3
Cc1nc2cccnc2n1C1CCN(C(=O)Nc2ccccc2)CC1,x,1.5
CCN1CCN(C2CCCCC2NS(=O)(=O)c2ccc(Cl)cc2)CC1 (stereo not drawn),-0.78,2
COc1cc2c(cc1OC)C1(O)C(=O)c3ccc(O)c(C(=O)O)c3OC1CO2 (stereo not drawn),x,0.4
O=C(NCc1ccco1)c1cc(S(=O)(=O)N2CCCCC2)c[nH]1,x,2.9
COC(=O)c1sccc1N(Cc1ccc(F)cc1)S(C)(=O)=O,-2.3,3.2
O=C1NC(c2ccc(-c3cccc(Cl)c3)o2)C(C(=O)c2ccc(F)cc2)C(O)(C(F)(F)F)N1 (stereo not drawn),-0.22,x
COc1ccc2sc(/C=C/c3ccc4c(c3)OCO4)[n+](C)c2c1,0.26,0.55
Cn1c(=O)c2nc3ccc(NC(=O)CCC(=O)O)cc3nc2n(C)c1=O,3.5,1.6
O=C1c2cccnc2C(=O)N1c1ccc(-c2nc3cc(Cl)ccc3o2)cc1,-0.62,2.9
CCOC(=O)c1sc(NC(=O)c2sc3ccccc3c2Cl)nc1C,1.6,0.3
Nc1ncnc2c1nc(Sc1ccc(Cl)cc1)n2C1OC2COP(=O)(O)O[C@@H]2[C@@H]1O (stereo partly drawn),-1.1,x
COc1ccc(NS(=O)(=O)c2ccc(-c3n[nH]c(C)c3C)s2)c(OC)c1,x,1
CC(CCc1ccco1)NC(=O)C1CCN(c2ncnc3c2nc2n3CCCCC2)CC1 (stereo not drawn),x,0.75
O=C(O)COCC(=O)Nc1ccc(Oc2c(Cl)cccc2Cl)nc1,-1.6,x
CCOC(=O)C1CCN(C(=O)C2CCCN(c3nnc(N4CCCC4=O)s3)C2)CC1 (stereo not drawn),x,0.54
O=S(=O)(CCSc1ccccc1NS(=O)(=O)c1cccs1)c1ccc(Cl)cc1,-0.5,x
O=C(CSc1nc(-c2cccs2)cc(C(F)(F)F)n1)Nc1cccnc1,-2.4,-0.85
O=C(Cn1cc(S(=O)(=O)c2ccccc2)c(=O)c2ccccc21)Nc1ccccc1,-1.4,1.4
O=C(NCc1ccco1)N1CCN(Cc2nc3cccnc3n2-c2ccccc2)CC1,x,1.2
CC(C)c1nnc(N2C(=O)c3oc4ccccc4c(=O)c3C2c2ccc(Cl)cc2)s1 (stereo not drawn),-0.49,3.2
CCOC(=O)Cc1csc(NC(=O)C2CCN(c3ncnc4c3nc3n4CCCCC3)CC2)n1,x,1
Cc1ccc(NC(=O)Cn2nc3c4sccc4ncn3c2=O)cc1C,x,0.4
COC(=O)c1cc(-c2ccc(Br)cc2)c2c(=O)[nH]c(=O)n(C)c2n1,-7.3,1.2
COc1ccc(N2CCN(C(=O)c3nc(-n4cnnc4)ccc3Br)CC2)cc1,x,0.45
C=CCNc1nc(Nc2ccccc2C)c2cnn(C)c2n1,x,1.2
O=C(Nc1ccc(F)cc1)C1CCN(S(=O)(=O)c2ccc3[nH]c(=O)oc3c2)CC1,x,0.41
CCCCSC1=C(C#N)C(=O)NC(c2ccc(C(=O)O)cc2)S1 (stereo not drawn),-1.1,-0.45
O=S1(=O)CCC(S(=O)(=O)Nc2ccc(Br)cc2)C1 (stereo not drawn),1.7,0.54
COc1ccc(NS(=O)(=O)c2c(C)noc2C)c(OC)n1,-2,x
O=C(c1ccco1)N1CCN(C(=O)C2CCN(c3nc4cccnc4s3)CC2)CC1,x,1.4
O=C(C1CC(=O)N(C2CCCC2)C1)N1CCn2c(nc3ccccc32)C1 (stereo not drawn),0.62,0.71
Cn1cccc1Cc1nnc(SCC(=O)N2CCCC2)n1-c1ccc(Cl)cc1,-1.5,-1.4
O=C1C(=O)N(CCCn2ccnc2)C(c2ccc(F)cc2)/C1=C(\O)c1ccc(Br)cc1 (stereo not drawn),-0.93,-1.2
NS(=O)(=O)c1ccc(NC(=O)c2[nH]nc3c2COc2ccccc2-3)cc1,x,-0.16
CC(C)c1nn2c(=O)cc(COC(=O)c3ccc(Br)cc3)nc2s1,x,-0.44
CCOc1ccc(-c2noc(-c3nnn(-c4ccc(CC)cc4)c3N)n2)cc1,x,0.61
CC(=O)OC1COC(n2ccc3ccccc32)C(OC(C)=O)C1OC(C)=O (stereo not drawn),0.06,0.06
CCOC(=O)NC1CCS(=O)(=O)C1 (stereo not drawn),-0.64,-0.88
COc1ccc(-c2csc(-c3cc(C)on3)n2)cc1,-0.68,x
CC(=O)N1CCc2cc(S(=O)(=O)CCC(=O)N3CC(C)CC(C)C3)ccc21 (stereo not drawn),-1.5,x
O=C(Cn1ccc2cc(S(=O)(=O)N3CCCCC3)ccc21)NCCc1ccco1,x,0.04
CCOC(=O)N1CCC(Nc2c(NCc3ccco3)c(=O)c2=O)CC1,-1.2,-0.08
O=C(Nc1c2c(nn1-c1ccc(F)cc1)CSC2)C(=O)N1CCOCC1,x,0.47
COc1ccc(-c2nc(C(N)=O)c3[nH]c(=O)n(-c4ccccc4OC)c3n2)cc1OC,x,4.9
O=C(NCCn1nnc2ccccc21)Nc1ccc(F)cc1,x,1.9
CC(N)C12CC3CC(CC(C3)C1)C2 (stereo not drawn),-0.91,x
Cc1nnc(SCC(=O)NC2CCCC2)c2nn(-c3ccccc3)c(C)c12,x,1.5
N#CC1=C2N=C(N)c3ccccc3N2C2=C(C(=O)CC(c3ccccc3)C2)C1c1ccc2c(c1)OCO2 (stereo not drawn),2.9,-5.9
c1ccc2c(CCNc3nn4nnnc4c4ccccc34)c[nH]c2c1,0.37,1.2
C=CCN1C(=O)c2ccccc2Sc2ccc(C(=O)OCc3ccco3)cc21,x,0.3
Cc1cc2nc(CSc3nnc(NC(=O)CCc4ccccc4)s3)cc(=O)n2o1,x,0.9
CCCSc1ncccc1C(=O)Nc1c(-c2ccccc2)noc1C,-0.71,x
CCCCCC(=O)Nc1ccc(Cl)cn1,-2,0.63

# Record cards, as listed above. Order of values: CDC25B CDK2 inh	HIV TAR-Tat
# CCCCCC(=O)Nc1ccc(Cl)cn1 as listed: -2	0.63
# COc1ccc(-c2csc(-c3cc(C)on3)n2)cc1 as listed: -0.68	x

# Random excerpt: 5 entries already listed.
SMILES,CDC25B CDK2 inh,HIV TAR-Tat
CCOC(=O)NC1CCS(=O)(=O)C1 (stereo not drawn),-0.64,-0.88
CCCSc1ncccc1C(=O)Nc1c(-c2ccccc2)noc1C,-0.71,x
COc1ccc(-c2csc(-c3cc(C)on3)n2)cc1,-0.68,x
c1ccc2c(CCNc3nn4nnnc4c4ccccc34)c[nH]c2c1,0.37,1.2
N#CC1=C2N=C(N)c3ccccc3N2C2=C(C(=O)CC(c3ccccc3)C2)C1c1ccc2c(c1)OCO2 (stereo not drawn),2.9,-5.9
